SARS PLpro yeast – inhibitors of SARS-CoV papain-like protease in yeast; S. cerevisiae expressing SARS-CoV PLpro, growth rescue; control for the full effect not named in the record; Potency, µM (doses to about 32.9 µM), without a hit: top-dose activity, positive = growth rescue; 330,000 tested, 0.19% active; AID 485353; active means well fitted rising curve with a large enough effect; inconclusive means small, poorly fitted or top-dose-only effect; inactive means no such curve, though single readings can be large or run the other way; also: 0% is about no effect; nearly all actives have a fitted effect of over 55% in size; growth read by luminescence after 48 h
NS1 inh – inhibitors of influenza NS1 protein function | S. cerevisiae slowed by influenza A NS1, growth recovery by OD600 | Potency, µM (top dose mostly 46.1 µM), without a hit: at the highest dose activity, positive = more growth | 270,000 tested, 0.4% active; active means well fitted rising curve with a large enough effect; inconclusive means small, poorly fitted or top-dose-only effect; inactive means no such curve, though single readings can be large or run the other way; also: nearly all actives have a fitted effect of over 50% in size
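A cell-based growth assay was used: compounds that relieve NS1-induced slow growth of budding yeast raise OD600. Assay medium was yeast nitrogen base with ammonium sulphate and -URA supplement, pH 6.0, with 2% galactose.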
Cruzain noTriton – inhibitors of Trypanosoma cruzi cruzain without detergent | purified cruzain, Z-FR-AMC fluorescence, no detergent | Potency, µM, without a hit: max response, negative = inhibition, usual class: inhibitors | 200,000 tested, 2.3% active;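 also: plate controls were enzyme without inhibitor for no effect and buffer without enzyme for full effect; nearly all actives have a fitted effect of over 40% in size; top concentration of the series not given in the record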
Target sequence (P25779 123-467 limits assumed): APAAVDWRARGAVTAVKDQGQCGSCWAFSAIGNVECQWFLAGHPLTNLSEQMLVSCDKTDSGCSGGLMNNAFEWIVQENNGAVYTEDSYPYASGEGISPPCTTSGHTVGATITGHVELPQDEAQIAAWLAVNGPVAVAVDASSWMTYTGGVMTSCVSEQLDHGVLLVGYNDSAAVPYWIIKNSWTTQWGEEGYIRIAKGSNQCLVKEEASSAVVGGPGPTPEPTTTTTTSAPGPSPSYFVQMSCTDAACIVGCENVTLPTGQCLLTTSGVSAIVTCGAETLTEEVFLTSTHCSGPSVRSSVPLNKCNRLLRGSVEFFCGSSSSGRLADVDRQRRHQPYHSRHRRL
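Purified cruzain at 1.5 nM, pre-incubated 15 min with compound at room temperature in 100 mM sodium acetate pH 5.5, 5 mM DTT, 0.00005% Triton X-100. Reaction started with 2 uM Z-FR-AMC; AMC fluorescence increase over 60 s gives rate.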
RE007 growth inh – less growth of the S. pombe RE007 Vpr strain; S. pombe RE007 Vpr strain, BacTiter-Glo ATP luminescence, 24 h; control for the full effect not named in the record; Potency, µM (top dose mostly 92.2 µM), for the others: top-dose activity change, negative = less growth; 360,000 tested, 0.21% active; active = well fitted falling curve with a large enough effect; inconclusive = small, poorly fitted or top-dose-only effect; inactive = no such curve, though single readings can be large or run the other way;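 also: % is scaled to controls: 0 for no effect and ±100 for the full control effect; nearly all actives have a fitted effect of over 50% in size; the assay follows cell death caused by Vpr and the record does not say whether a fall means rescue or toxicity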
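Fission yeast RE007 carrying one integrated HIV-1 vpr copy, seeded at OD 0.01 in PMG+AL medium with 23 nL pinned compound. Grown 24 h at 30 degrees; viability read by BacTiter-Glo luminescence after 5 min.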
Cruzain Triton – inhibitors of Trypanosoma cruzi cruzain with detergent; purified cruzain, Z-FR-AMC fluorescence, 0.01% Triton; Potency, µM, inactives show max response, negative = inhibition, hits mostly inhibitors; AID 1478; 200,000 tested, 0.43% active;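 also: plate controls were neutral wells for no effect and buffer without enzyme for full effect; nearly all actives have a fitted effect of over 40% in size; top concentration of the series not given in the record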
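In this qHTS format, compounds are incubated with 1.5 nM cruzain for 15 min at room temperature before 2 uM Z-FR-AMC is added. Release of AMC is followed at 360/450 nm, and progress is taken as the 60 s fluorescence difference.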
Lassa entry inh – inhibitors of Lassa virus binding or cell entry | Lassa virus pseudotype entry inhibition, cell reporter; control for the full effect not named in the record | Potency, µM (titrated, usually from 37.9 µM), for inactives: top-dose activity change, negative = inhibition, usual class: inhibitors | 300,000 tested, 1.2% active; active means well fitted inhibition curve with a large enough effect; inconclusive means small, poorly fitted or top-dose-only effect, or effect the other way; inactive means flat fitted curve, though single readings scatter; tested in HEK293 cells; also: % is scaled to controls: 0 for no effect and ±100 for the full control effect; nearly all actives have a fitted effect of over 50% in size; luciferase read-out
MARV entry inh – inhibitors of Marburg virus binding or cell entry; Potency, µM (titrated, usually from 37.8 µM), without a hit: at the highest dose activity change, negative = inhibition, actives largely listed as inhibitors; AID 540276; 300,000 tested, 1.8% active; Marburg virus pseudotyped entry inhibition, cell reporter; control for the full effect not named in the record; about a third of the inactives were read at about 46 µM; active = well fitted inhibition curve with a large enough effect; inconclusive = small, poorly fitted or top-dose-only effect, or effect the other way; inactive = flat fitted curve, though single readings scatter; tested in HEK293 cells; about a fifth of its hits are not listed in these tables; also: % is scaled to controls: 0 for no effect and ±100 for the full control effect; luciferase read-out
StopGo reporter – lowers the luciferase signal of an FMDV 2A StopGo reporter. human cells with a luciferase reporter of 2A StopGo recoding; control for the full effect not named in the record. Potency, µM (titrated, usually from 57.9 µM), without a hit: at the highest dose signal change, negative = less light. 410,000 tested, 1.2% active. AID 1159524; active = well fitted falling curve with a large enough effect; inconclusive = small, poorly fitted or top-dose-only effect; inactive = no such curve, though single readings can be large or run the other way; tested in HEK293T cells; also: % is scaled to controls: 0 for no effect and ±100 for the full control effect; nearly all actives have a fitted effect of over 45% in size; luciferase light after 4 h
Active calls of the source: *; ? = inconclusive; / = no result given; [ ] = remark or other dose. Unless noted, calls follow the shape of the dose curve; as a rule, active = well fitted curve in the direction sought with a large enough effect; inconclusive = small, poorly fitted or top-dose-only effect, or another doubt; inactive = no such curve, though single readings can be large; an effect the other way counts as inactive or inconclusive. Potency is read from the fitted curve at half-maximal effect.

SMILES | SARS PLpro yeast | NS1 inh | Cruzain noTriton | RE007 growth inh | Cruzain Triton | Lassa entry inh | MARV entry inh | StopGo reporter
C=CCNc1nnc(SC2CC(=O)N(c3ccc(OC)cc3)C2=O)s1 (stereo unspecified) | -33% | -211% | -5% | ? | -7.1% | -45%[14.3 µM] | -8% | 7%
O=C(NCC1CCCN(Cc2ccccc2F)C1)c1cccc(C(F)(F)F)c1 (stereo unspecified) | 0% | 3% | / | 10% | / | -10% | ? | -25%
Nc1cc(N)nc(SCC(=O)Nc2ccccc2)n1 | -4% | 4% | 4% | -9% | -0.7% | ? | 15%[46.1 µM] | -2%
Cc1nn(Cc2ccc([N+](=O)[O-])cc2)c(=O)n1-c1c(F)cccc1F | -1% | 3% | -3% | 8% | 0.4% | 9% | 4% | -3%
COc1ccc(-c2csc(NC(=O)c3cccc(N4C(=O)CCC4=O)c3)n2)cc1OC | -15% | / | / | -12% | / | -1% | ? | -18%
CCN(CC)CCCOC(=O)C1(c2ccccc2)CCCC1 | 10% | 1% | 7% | -13% | 4.9% | -10% | ? | 0%
Cc1c(Cl)cccc1NC(=S)NCc1cccn1C | 27% | 14% | 1% | -2% | -2.9% | 2% | ? | 22%
Cc1ccc(-c2cc3cccc[n+]3cc2-c2ccc(C)cc2)cc1 | -36% | 19% | -14% | -11% | -13% | 6.5µM* | 3.2µM* | 40µM*
COc1cccc(C(=O)N(Cc2cccnc2)c2nc3c(OC)ccc(C)c3s2)c1OC | / | / | ? | / | -4.0% | ? | / | -21%
O=C(c1cc(F)ccc1F)C1CCCN(C(=O)c2ccco2)C1 (stereo unspecified) | -1% | 3% | / | 5% | / | 0% | -3%[46.1 µM] | -7%
C=CCn1cc(CN2CCC(C(=O)Nc3cccc(-c4cccc(F)c4)c3)CC2)c(C)n1 | 6% | -2% | / | 5% | / | -1% | ? | ?
O=C(Cn1ncc2c(=O)oc3ccccc3c21)NCc1cccnc1 | 5% | / | / | 9% | / | 5%[46.1 µM] | ? | 21%
Cn1nnc(NC(=S)NC(=O)c2cccc3c(Br)cccc23)n1 | 6% | -5% | / | 12% | / | / | / | -12%
COc1ccc(CCNC(=O)c2ccc(Cn3c(=O)c4ccccc4n(Cc4cccc(F)c4)c3=O)cc2)cc1OC | / | / | -4% | / | -2.5% | ? | ? | ?
O=C(NC1CC2CCCC(C1)N2C(=O)NC1CCCCC1)c1ccccc1 (stereo unspecified) | 3% | 3% | -2% | 19% | 2.8% | 1% | 20%[46.1 µM] | -4%
O=C(Nc1ccc2oc(-c3ccc(Br)cc3)nc2c1)c1cc2ccccc2o1 | / | / | 6% | / | -1.2% | 14%[46.1 µM] | / | 18%
O=C(NCC1CCCO1)c1ccc2c(c1)OCO2 (stereo unspecified) | -2% | 8% | -4% | -5% | 1.4% | ? | 24% | /
Cc1nn(Cc2ccc(C(=O)O)o2)c(C)c1[N+](=O)[O-] | 0% | 2% | / | 20% | / | 18% | -15%[46.1 µM] | -9%
CCC1CCCCN1C(=O)Cn1c(C(=O)OC)cc2ccsc21 (stereo unspecified) | 0% | -4% | 0% | 12% | -0.6% | -4% | -8% | -6%
CS(=O)(=O)Nc1ccc(C(=O)NC2CCCC2)cc1 | -4% | 1% | 1% | 2% | 2.4% | 1% | -11% | 15%
Clc1ccc2c(NCc3cccs3)ncnc2c1 | 0% | -9% | / | -16% | / | / | / | -29%
CCCOc1ccc(-c2cnc(SCC(N)=O)nc2N)cc1 | -1% | 8.9µM* | -6% | 9% | 1.3% | -29% | ? | 0%
O=C1CC(c2ccccc2F)C2=C(COC2=O)N1 (stereo unspecified) | 5% | -1% | / | 9% | / | -9% | -1%[46.1 µM] | 6%
COc1ccc(CNC(=O)[C@H](C)NC(=O)C2CC(=O)N(c3ccc(OC)cc3)C2)cc1 (stereo partly specified) | -4% | -1% | / | -10% | / | / | / | -16%
CCc1ccc(-c2nn(Cc3ccccc3)cc2/C=C/C(=O)O)cc1 | -1% | 12% | 1% | 18% | -10.0% | 0% | -10% | -15%

New compounds follow
SMILES | SARS PLpro yeast | NS1 inh | Cruzain noTriton | RE007 growth inh | Cruzain Triton | Lassa entry inh | MARV entry inh | StopGo reporter
CCCCN(C)CCNC(=O)c1cc(=O)[nH]c2ccc(S(=O)(=O)N3CCCCCC3)cc12 | / | / | 0% | / | 0.5% | 1%[46.1 µM] | / | -11%
Cc1cc(Br)ccc1NC(=O)C1(S(=O)(=O)c2ccc(Cl)cc2)CC1 | / | / | -14% | / | -7.8% | 9%[46.1 µM] | -3%[46.1 µM] | -19%
Cc1cccc(C(=O)NC2CCN(C(=O)Nc3ccc(F)cc3)CC2)c1 | -2% | -2% | / | 5% | / | 11%[46.1 µM] | -12%[46.1 µM] | -4%
Cc1c(C(=O)N2CCC2)oc2c(F)cccc12 | -3% | / | / | -17% | / | 7% | 2% | -16%
COc1ccccc1/C=C1\SC(=S)N(N2C(=O)CCCC2=O)C1=O | -2% | -18% | / | 8% | / | 15%[46.1 µM] | 3%[46.1 µM] | 7%
Cc1ccc(-c2cc(-c3ccccc3O)nc(N/N=C/c3cccnc3)n2)cc1 | 1% | 17% | 25µM* | 13% | 3.0% | -22% | -13% | /
Cc1cccc(NC(=O)c2cnn3ccccc23)c1C | 1% | 4% | / | -5% | / | / | / | 19%
CCSc1nc(NCCN(C)C)c2c3c(sc2n1)COC(C)(CC)C3 (stereo unspecified) | 1% | 2% | / | 7% | / | -28% | ? | -13%
COc1ccccc1Nc1nc(-c2ccccc2)c(CC(=O)O)s1 | / | / | 25µM* | / | -13% | -2%[46.1 µM] | ? | 11%
CCNS(=O)(=O)c1cc(S(C)(=O)=O)ccc1Cl | 2% | -3% | 8% | -9% | 0.7% | -5% | -1% | /
CCN(CC)C1CC(=O)N(c2cccc(C)c2)C1=O (stereo unspecified) | -102% | -171% | 11% | / | -1.6% | -6% | -38% | /
COc1cccc(NC(=O)CSc2nnc(-c3cc(-c4ccccn4)nc4ccccc34)o2)c1 | -3% | 16% | -17% | 2% | 0.7% | -2% | -16% | -18%
Cc1nn(C(=O)CNC(=O)c2ccccc2)c(C)c1C | -4% | / | / | -10% | / | -18% | -2% | 53%[activator]
Cc1cc(C)cc(C(=O)NCC(=O)N2CCN(C(c3ccccc3)c3ccccc3)CC2)c1 | -4% | ? | / | ? | / | -20%[46.1 µM] | 13µM* | 3%
CCC(=O)Nc1nc(CC(=O)Nc2ccccc2)cs1 | -1% | -3% | -3% | 3% | -1.0% | 14% | -15% | -13%
COc1ccc(/C=C/C(=O)c2c(O)c(OC)c3occc3c2OC)cc1 | -1% | 0% | / | 8% | / | -15% | ? | ?
CCOC1(NC(=O)c2ccccc2)C(C)=CC(=O)C=C1C | -2% | 0% | 0% | -7% | 0.4% | -8% | -10% | 0%
CC1(C)N=C(SCc2ccc(F)cc2)c2ccccc2N1 | / | / | 1% | / | -3.2% | 2%[46.1 µM] | / | -36%
CC(=NNc1nc2ccccc2o1)c1cc2ccccc2cn1 | / | / | / | ? | / | 0.79µM* | 0.35µM* | -20%
CCCCOc1cccc(C(=O)O)c1 | -5% | -32% | -3% | -23% | 3.1% | 4% | ? | 12%
CNC(=O)c1oc(-c2ccc(Cl)cc2)nc1C | -2% | -1% | / | -15% | / | -2% | 1% | 5%
CC(C(=O)c1ccccc1)n1cnc2ccccc2c1=O (stereo unspecified) | 3% | -1% | 6% | 16% | -1.5% | 14% | 19% | 14%
NS(=O)(=O)c1ccc(CCNC(=O)/C=C/c2ccc([N+](=O)[O-])cc2)cc1 | 4% | / | / | 3% | / | 17% | -28%[46.1 µM] | ?
CC(OC(=O)c1n[nH]c2ccccc12)C(=O)Nc1ccccc1[N+](=O)[O-] (stereo unspecified) | -3% | / | / | 7% | / | -27% | ? | -14%
O=C(O)/C=C\C(=O)N1CCc2ccccc21 | 14% | 10% | 0% | 12% | -0.7% | 7% | 8% | 18%

(next part)
SMILES | SARS PLpro yeast | NS1 inh | Cruzain noTriton | RE007 growth inh | Cruzain Triton | Lassa entry inh | MARV entry inh | StopGo reporter
O=C(Nc1ccn(-c2ccccc2)n1)c1ccc(Cl)cc1 | -37% | -9% | -8% | 13% | -5.6% | -4% | ? | -18%
CCN(CCCNC(=O)CSc1cc(=O)n(C)c2cc(Cl)ccc12)Cc1ccccc1 | -2% | / | / | -11% | / | 3%[46.1 µM] | 11µM* | -11%
Cc1ccc(C(=O)NCc2ccncc2)cc1S(=O)(=O)Nc1cccc(C)c1C | 6% | -7% | / | -4% | / | / | / | 70%[activator]
COc1ccc(C(Nc2ccccn2)c2oc(CO)cc(=O)c2O)cc1 (stereo unspecified) | 11µM* | 2% | 1% | 7% | -5.1% | 3% | -5% | -3%
CC1(C)CC2CC(C)(CN2C(=O)CCCN2C(=O)c3ccccc3C2=O)C1 (stereo unspecified) | -8% | -14% | -10% | 6% | 1.0% | -8% | 0% | -1%
O=C(Nc1ccc(SC(F)F)cc1)C12CCC(CC1)C2 | 15% | -6% | 5% | 10% | -5.3% | 2%[46.1 µM] | 1%[46.1 µM] | -7%
O=C(N/N=C/c1ccc(N2CCOCC2)cc1)C1CC1 | 0% | / | / | -8% | / | 1%[46.1 µM] | 21%[46.1 µM] | 15%
Cc1nc(NCCc2ccc(S(N)(=O)=O)cc2)c2c(C)c(C)sc2n1 | -8% | 3% | 2% | 6% | -7.4% | ? | ? | 22µM*
CCc1cc2c(=O)c(-c3cnn(-c4ccccc4)c3)coc2c(CN2CCOCC2)c1O | 2% | 0% | ? | 4% | -2.5% | -22% | ? | -8%
COc1ccc(N2C(=O)C3C4C=CC(C5CC45)C3C2=O)c([N+](=O)[O-])c1 (stereo unspecified) | 1% | 4% | -5% | -22% | -2.5% | 3% | 2% | -12%
CN=C1CC(SC)=C1c1ccc(C)cc1 | -27% | -7% | 0% | ? | -5.2% | ? | -23% | 32µM*
CCCCC(=O)c1ccc(O)cc1O | / | / | / | -13% | / | 20% | -6% | -12%

The order is random; 4.7% or so of the library scored in one or more.
